D2 PAM – positive allosteric modulators of human D2 dopamine receptor | P14416 | DiscoveRx D2 beta-arrestin cells, luminescence, 90 min; 100% = 57 uM dopamine signal | potentiation, % (concentration not given with the values) | 360,000 tested, 0.23% active | AID 624464; active = potentiation of 50% or more; inconclusive = 30% to 50%; inactive = 30% or less;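 further: compound concentration not given in the record; tested on top of an EC20 dose of dopamine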
Target sequence (P14416 whole entry, looked up): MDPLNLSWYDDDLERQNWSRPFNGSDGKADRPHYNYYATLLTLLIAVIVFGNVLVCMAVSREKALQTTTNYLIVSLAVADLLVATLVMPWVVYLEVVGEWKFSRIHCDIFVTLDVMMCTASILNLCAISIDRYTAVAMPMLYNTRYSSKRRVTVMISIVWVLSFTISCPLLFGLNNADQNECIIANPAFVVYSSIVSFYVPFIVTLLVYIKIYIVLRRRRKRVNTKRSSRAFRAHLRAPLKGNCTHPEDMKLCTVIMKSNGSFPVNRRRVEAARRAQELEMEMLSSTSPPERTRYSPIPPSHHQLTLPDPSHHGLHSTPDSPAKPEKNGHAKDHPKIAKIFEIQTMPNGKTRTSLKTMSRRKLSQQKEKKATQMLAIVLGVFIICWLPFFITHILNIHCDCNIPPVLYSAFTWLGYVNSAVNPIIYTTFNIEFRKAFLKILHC
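PathHunter beta-arrestin assay in DiscoveRx D2 cells. Compounds were added with an EC20 of dopamine (50 nM final) for 90 min at 37 deg C. Luminescence was read 1 h after detection reagent, with 57 uM dopamine as the EC100 control.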
CtBP-E1A inh – CtBP/E1A binding inhibition; AlphaScreen GST-E1A/His-CtBP binding, 1536-well; active compounds read low; control for the full effect not named in the record; activity change, % (no concentration beside the values); 340,000 tested, 0.49% active; in the data active means activity change below about -65%; inconclusive means about -30% to -65%; inactive means above about -30%; further: on the % scale 0 is the no-effect control and ±100 the full control effect
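Steps: dispense buffer (Tris pH 8.0, NaCl 300 mM, TCEP 1 mM, BSA, Tween 20); add 5X protein mix (GST-E1A, His-CtBP, 125 nM each); pin 23 nL compound; 2 h at 37 °C, dark; add 5X beads (50 ug/mL); 1 h; read.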
TRPML1 inh – inhibitors of human TRPML1 channel; Q9GZU1; TRPML1-inducible cells, Ca2+ dye fluorescence, FDSS; active compounds read low; inhibition of EC80 agonist-evoked calcium signal; activity change, negative = inhibition, % (no concentration beside the values); 390,000 tested, 0.02% active; in the data active means activity change below about -50%; inconclusive means about -30% to -50%; inactive means above about -30%;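 further: stimulus is agonist 54-4 at its EC80 concentration; on the % scale 0 is the no-effect control and ±100 the full control effect; compound concentration not given in the record; the text of the record puts the active cut at -80%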
Target sequence (Q9GZU1 whole entry, looked up): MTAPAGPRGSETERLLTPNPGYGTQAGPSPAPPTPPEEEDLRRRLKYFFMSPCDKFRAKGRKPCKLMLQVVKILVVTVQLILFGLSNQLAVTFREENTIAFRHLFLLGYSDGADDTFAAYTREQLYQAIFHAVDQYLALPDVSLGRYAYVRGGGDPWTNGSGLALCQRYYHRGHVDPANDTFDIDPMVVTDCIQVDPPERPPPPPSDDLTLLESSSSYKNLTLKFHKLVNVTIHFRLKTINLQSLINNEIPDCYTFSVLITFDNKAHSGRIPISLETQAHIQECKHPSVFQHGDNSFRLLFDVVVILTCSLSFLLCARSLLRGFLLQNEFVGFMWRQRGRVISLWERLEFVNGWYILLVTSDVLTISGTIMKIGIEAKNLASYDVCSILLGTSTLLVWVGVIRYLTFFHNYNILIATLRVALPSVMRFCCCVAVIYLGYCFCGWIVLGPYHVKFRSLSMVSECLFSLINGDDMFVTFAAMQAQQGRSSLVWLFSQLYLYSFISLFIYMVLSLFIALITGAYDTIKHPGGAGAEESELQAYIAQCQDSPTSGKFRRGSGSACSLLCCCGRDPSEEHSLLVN
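Tet-induced TRPML1-DL cells loaded with Ca8 no-wash calcium dye were read kinetically on FDSS. Compound addition was followed by EC80 agonist 54-4 (4 uM final); inhibition was read over 110 s.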
TRPV1 PAM – potentiators of human vanilloid receptor 1 (TRPV1); Q8NER1; TRPV1-expressing cells, Fluo-8 calcium influx, capsaicin EC20 potentiation; host cell line not named in the record; control for the full effect not named in the record; AID 540277; potentiation, % at 8.33 µM; 320,000 tested, 0.02% active; active means potentiation above 80%; inconclusive means 30% to 80%; inactive means below 30%; further: 0% is about no effect
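Cells expressing TRPV1 were dye-loaded with Fluo-8 and read kinetically: 10 s baseline, 3 min after compound (agonist portion), then 2 min after EC20 capsaicin (allosteric enhancer portion). Calcium-bound dye fluorescence at 480/520 nm.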
TRPML1 ag – activates the human TRPML1 channel | 410,000 tested, 0.12% active | TRPML1-expressing cells, Ca2+ dye fluorescence, FDSS; host cell line not named in the record; reference of the full effect not given here | AID 624414 | activation, % (no concentration beside the values) | Q9GZU1; in the data active = activation above about 50%; inconclusive = about 30% to 50%; inactive = below about 30%; further: 0% is about no effect; the text of the record puts the active cut at 80%
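Tetracycline-induced TRPML1-DL cells are seeded and incubated overnight before loading with a no-wash Ca2+ dye and quencher. Agonist activity is taken from the 110 s fluorescence read following compound pin-transfer on an FDSS, before EC80 54-4 challenge.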
Six1-Eya2 inh – blocks human Six1 binding to Eya2; Q15475+O00167; AlphaScreen GST-Six1/His-Eya2 binding, biochemical; active compounds read low; control for the full effect not named in the record; activity change, % (concentration not given with the values); 360,000 tested, 0.56% active; in the data active = activity change below about -65%; inconclusive = about -30% to -65%; inactive = above about -30%; further: on the % scale 0 is the no-effect control and ±100 the full control effect
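Six1/Eya2 binding was read as AlphaScreen signal after compounds were pinned into GST-Six1 plus His-tagged Eya2 (5X stock 250/500 nM) in pH 8.0 Tris/NaCl/TCEP buffer, beads added, then incubated 1 h, 37 C, dark.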
* = called active by the depositor; ? = inconclusive; nt = no result given; & = joins results of further samples.

SMILES	TRPV1 PAM	TRPML1 ag	CtBP-E1A inh	Six1-Eya2 inh	D2 PAM	TRPML1 inh
C/C(=N\OC(=O)c1ccc(Cl)cc1)c1nccs1	-11	0.4	2	-1	0	6
N#CCC(=O)N/N=C/c1c(-c2ccccc2)n(-c2ccccc2)c2ccccc12	5	1.6	-6	-12	-9	21
CC1=C(C(=O)OCCC(C)C)C(c2ccc3c(c2)OCO3)NC(=O)N1 (stereo not drawn)	-6	nt	nt	-3	-2	nt
NC(=O)[C@@H]1CCCNc2c(F)cc([N+](=O)[O-])cc2C(=O)N[C@@H](CCC(=O)O)C(=O)N[C@@H](CO)C(=O)N1	4	0.1	3	10	-3	-21
CC1CCCN(Cc2c(C(=O)N3CCc4ccccc4C3)nc3ccc(Cl)cn23)C1 (stereo not drawn)	-21	-0.1	-7	-11	-24	-4
Cc1c(C=O)c(=O)n(-c2ccccc2)n1-c1ccccc1	22	-0.1	8	-3	-19	19
CCOc1ccc(NS(=O)(=O)c2ccc3[nH]cc(C(=O)NCC4CCCO4)c(=O)c3c2)cc1 (stereo not drawn)	4	-0.3&1.5	-4	-9	21	16&-10
Cc1ccc(C(=O)N2CCN(c3ccc(NC(=O)CSc4ccc(Cl)cc4)cc3)CC2)cc1	11	-0.6	15	0	-29	10
CCn1cc(CN2CCC(n3nccc3NC(=O)CCCc3ccccc3)CC2)cn1	8	0.0	7	5	-39	-2
Cc1cc(C)nc(NC(=O)Cc2ccc(Cl)cc2)c1	20	1.7	10	5	-1	-16
O=C(Nc1ccccc1Cl)c1ccc(S(=O)(=O)N2CCOCC2)cc1	-33	-0.6	0	4	-6	-2
Cn1c(=Nc2ccccc2)sc2ccccc21	?	2.3	21	25	-8	34
O=C1NC(=O)/C(=C\c2ccc(N3CCOCC3)o2)N1	?	1.0	-10	1	-3	-1
COc1ccc(CC(=O)Nc2nnc(C)s2)cc1	2	0.6	6	2	1	-9
CCN1CCN(C(c2ccccc2)c2nnnn2CCc2ccc(OC)c(OC)c2)CC1 (stereo not drawn)	5	-0.1	1	2	3	5
Cc1cc(Br)ccc1NC(=O)CN(C)C(=O)Cn1c(=O)cnc2ccccc21	-1	-0.3	0	0	-16	-10
CN(C)S(=O)(=O)c1ccc2c(c1)nc(CCC(=O)O)n2C	1	0.2	2	8	4	-17
CC(=O)c1cccc(-c2cnc3c(NC=O)cc(-c4ccc(N5CCN(C)CC5)cc4)cn23)c1	nt	0.6	-19	-25	-6	nt
CCSc1nnc(NC(=O)c2cc(C)nc3ccccc23)s1	29	-0.2	-23	-17	-6	0
CNC(=O)/C(C#N)=C\c1cc(C)n(-c2ccc(N3CCOCC3)cc2)c1C	-2	-0.7	14	9	4	-5
Cc1ccccc1-c1cc2nc(NCCN3CCNC3=O)n(C)c(=O)c2s1	nt	0.4	-20	-27	-35	nt
COc1cccc(-c2nc(CS(=O)(=O)CC(=O)Nc3cc(OC)ccc3OC)c(C)o2)c1	9	2.4	nt	10	-5	-5
O=C(NNC(=S)NC(=O)c1cccnc1)c1ccc(F)cc1	-3	0.6	-3	-1	-23	-6
CC[C@H](C)[C@@H](CN[C@H](C)CNC)NCCC(c1ccccc1)c1ccccc1	28	-0.6	-1	-1	-30	-15
CCOC(=O)c1[nH]c(C)c(C(=O)NCc2ccccn2)c1C	-2	0.1	5	0	-9	-6
CC(=O)Nc1ccc(NC(=O)C(C)Oc2ccccc2F)cc1 (stereo not drawn)	1	0.9	-19	2	-5	-12
CCOc1ccc(C(=O)NC(=S)NC2CCCC2)cc1[N+](=O)[O-]	-2	12	-9	-18	8	-8
C[C@@H]1CN([C@H](C)CO)C(=O)c2c(c3ccccc3n2C)-c2ccccc2CO[C@@H]1CN(C)C(=O)Nc1ccc2c(c1)OCO2	nt	2.1	2	-13	1	-6
Cn1c(C(=O)NCCC2=CCCCC2)cc2c(=O)n3ccccc3nc21	-6	-0.6	-1	2	9	10
CCOc1ccc(S(=O)(=O)NCC(=O)N(C)Cc2cccnc2)cc1	14	-0.7	-1	-5	-12	12
CCCc1nc2ccc(C(=O)OC)cn2c1Cc1ccccc1C(F)(F)F	nt	1.4	1	8	-19	nt
Cc1ccc(C)c(S(=O)(=O)N2CCCN(C)CC2)c1	14	0.7	0	4	-7	-1
COc1ccc(CCNC(=O)Nc2nnc([C@H]3C[C@H](O)[C@@H](CO)O3)s2)cc1OC	nt	-0.1	3	-1	-9	nt
CN(C)C(=O)c1noc2cc([N+](=O)[O-])ccc12	1	-0.3	-1	-1	13	11
COc1cccc(N2CCN(C(=O)CSc3ccc(F)cc3)CC2)c1	18	-1.3	-7	3	12	-16
COCCCNC(=O)C(=O)C1C(=O)Nc2ccccc21 (stereo not drawn)	-13	0.4	0	4	-3	10
C[C@H](c1ccccc1)N1C[C@H](COCc2ccccc2)Oc2cc(N3CC[C@H](O)C3)ccc2S1(=O)=O	nt	-0.2	-18	-14	nt	nt
c1ccc(C[C@H]2CNCCN2CCCCC2CCCCC2)cc1	-12	-0.1	-22	?	-7	13
COc1cc(/C=C/c2nc3ccccc3c(=O)[nH]2)ccc1OC(F)F	5	nt	6	9	-4	nt
Cc1nnc(NC(=O)c2cc3n(n2)C(C(F)(F)F)CC(C2CC2)N3)s1 (stereo not drawn)	-4	-0.5	4	-2	-10	-6
CCCC(=O)Nc1ccc(NC(=S)NC(=O)c2ccccc2[N+](=O)[O-])cc1	-14	-0.5	9	12	-27	17
Cn1c(CO)cnc1SCc1ccc(F)cc1	?	0.1	-17	3	-1	-3
CCc1ccc(C(=O)COC(=O)c2ccc(Cl)nc2)cc1	14	0.9	10	10	-2	0
O=c1c2nccnc2[nH]c(=S)n1Cc1ccccc1	?	-0.5	3	8	2	-12
CCN(CC)C(=O)c1cc2c(=O)n3cccc(C)c3nc2n1C	4	-0.5	3	3	-4	-16
CC(C)C[C@H](NC(=O)N1CCn2c1nc1ccccc12)C(=O)NCc1ccc2c(c1)OCO2	-2	-0.9	-4	-6	-9	15
O=C(NCCOc1ccccc1Cl)C(=O)Nc1ccccc1	13	1.9	30	28	-9	-30
O=C(NCc1ccccc1)C(c1ccco1)N(C(=O)c1cnccn1)c1ccc(F)cc1 (stereo not drawn)	-8	-0.1	38	19	-1	-7
COc1cccc2[nH]c3c(=O)[nH]cnc3c12	1	-1.0	-22	?	-3	52
C=CCC(Nc1ccccc1)c1cccc(OC)c1OC (stereo not drawn)	-26	3.8	-1	-3	-1	-15

Other structures.
SMILES	TRPV1 PAM	TRPML1 ag	CtBP-E1A inh	Six1-Eya2 inh	D2 PAM	TRPML1 inh
COc1ccc(Cl)cc1NC(=O)c1cccc(S(=O)(=O)Nc2c(C)n(C)n(-c3ccccc3)c2=O)c1	nt	2.9	2	-2	0	4
COc1ccc2nc(NC(=O)CSc3nc(C)cc(=O)[nH]3)sc2c1	2	1.0	-16	-6	-4	-13
COc1cccc(Cn2cc(N)cn2)c1	-1	0.9	nt	-11	-10	2
COC(=O)/C=C1/SC(=Nc2ccc(Cl)c(Cl)c2)NC1=O	?	1.0	1	-4	-3	8
C#CCOC(=O)Nc1cccn(Cc2c(Cl)cccc2Cl)c1=O	0	2.5	-6	2	7	6
C/C(=N\NC(=O)c1ccc(Br)cc1)C1C(=O)c2ccccc2C1=O	3	-0.3	5	-11	-14	6
CCN(Cc1cnn(C)c1)C(=O)c1ccc(OC2CCN(S(=O)(=O)N(C)C)CC2)cc1	6	-0.5	2	-2	-8	-2
CC(=O)NCC(=O)N(c1c(C)n(C)n(-c2ccccc2)c1=O)C1(C(=O)NC2CCCC2)CCCCC1	-1	-0.3	0	27	-13	-8
CN(CC(=O)Nc1ccc(F)c(F)c1F)C(=O)C1CCCO1 (stereo not drawn)	-5	0.1	-4	15	0	6
COc1ccc(-c2ocnc2C(=O)Nc2ccc(N3CCOCC3)cc2N2CCOCC2)cc1OC	7	-0.5	0	-11	13	-2

Record cards, as listed above. Screens in order: TRPV1 PAM, TRPML1 ag, CtBP-E1A inh, Six1-Eya2 inh, D2 PAM, TRPML1 inh
`CCN(Cc1cnn(C)c1)C(=O)c1ccc(OC2CCN(S(=O)(=O)N(C)C)CC2)cc1` is listed with 6, -0.5, 2, -2, -8, -2
`C/C(=N\NC(=O)c1ccc(Br)cc1)C1C(=O)c2ccccc2C1=O` is listed with 3, -0.3, 5, -11, -14, 6
`C#CCOC(=O)Nc1cccn(Cc2c(Cl)cccc2Cl)c1=O` is listed with 0, 2.5, -6, 2, 7, 6
`COc1ccc(-c2ocnc2C(=O)Nc2ccc(N3CCOCC3)cc2N2CCOCC2)cc1OC` is listed with 7, -0.5, 0, -11, 13, -2

Next part
SMILES	TRPV1 PAM	TRPML1 ag	CtBP-E1A inh	Six1-Eya2 inh	D2 PAM	TRPML1 inh
COc1ccc(S(=O)(=O)N2CCC(C(=O)N(C)Cc3ccc(C)o3)CC2)cc1OC	-5	-1.6	nt	-2	-9	-10
CC1(C)CC(=O)C=C(NCc2ccncc2)C1	0	0.4	8	6	-7	26
Cc1cc2c(c(=O)o1)C(C(C)C)C(C#N)=C(N)O2 (stereo not drawn)	20	-0.3	9	0	-11	-2
CCCCC[n+]1ccn(-c2nc3ccccc3nc2[N-]S(=O)(=O)c2ccccc2)c1	-5	-0.4	-12	0	-5	-12
Cc1ccc(Cn2cc(CN3CC(N4CCN(CCO)CC4)CS3(=O)=O)nn2)cc1 (stereo not drawn)	nt	-0.5	1	10	nt	nt
COCCn1c(C)cc2c(c1=O)C(c1ccccc1F)C(C#N)=C(N)O2 (stereo not drawn)	-12	-0.7	-3	-6	-22	12
CN(Cc1ccccc1)C(=O)c1ccccc1Br	-13	0.0	-10	5	-1	-3
Cc1ncc(C)c2c([N+](=O)[O-])cccc12	nt	-0.3	1	-2	-10	-3
COc1cc([C@@H]2c3cc4c(cc3[C@@H](O[C@@H]3O[C@@H]5CO[C@@H](C)O[C@H]5[C@H](O)[C@H]3O)[C@H]3COC(=O)[C@H]23)OCO4)cc(OC)c1O	nt	-0.5	-5	-2	-21	6
